Rango-impB inh = prevents formation of the Rango-importin beta complex; AID 540263; Rango CFP/YFP FRET sensor + importin beta, 45 min; actives 0.031% (n = 340,000); Potency, µM (doses to about 92.2 µM), for the others: at the highest dose inhibition of complex formation; Q14974; active = rising FRET ratio curve, often small or poorly fitted; inconclusive = mostly compound fluorescence or quenching in the first reads; inactive = flat curves in all reads;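 further: potency means the concentration at half of the fitted maximal effect; 0% = DMSO wells and 100% = buffer wells lacking importin beta; nearly all actives have a fitted effect of over 15% in size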
Target sequence (Q14974 whole entry, looked up): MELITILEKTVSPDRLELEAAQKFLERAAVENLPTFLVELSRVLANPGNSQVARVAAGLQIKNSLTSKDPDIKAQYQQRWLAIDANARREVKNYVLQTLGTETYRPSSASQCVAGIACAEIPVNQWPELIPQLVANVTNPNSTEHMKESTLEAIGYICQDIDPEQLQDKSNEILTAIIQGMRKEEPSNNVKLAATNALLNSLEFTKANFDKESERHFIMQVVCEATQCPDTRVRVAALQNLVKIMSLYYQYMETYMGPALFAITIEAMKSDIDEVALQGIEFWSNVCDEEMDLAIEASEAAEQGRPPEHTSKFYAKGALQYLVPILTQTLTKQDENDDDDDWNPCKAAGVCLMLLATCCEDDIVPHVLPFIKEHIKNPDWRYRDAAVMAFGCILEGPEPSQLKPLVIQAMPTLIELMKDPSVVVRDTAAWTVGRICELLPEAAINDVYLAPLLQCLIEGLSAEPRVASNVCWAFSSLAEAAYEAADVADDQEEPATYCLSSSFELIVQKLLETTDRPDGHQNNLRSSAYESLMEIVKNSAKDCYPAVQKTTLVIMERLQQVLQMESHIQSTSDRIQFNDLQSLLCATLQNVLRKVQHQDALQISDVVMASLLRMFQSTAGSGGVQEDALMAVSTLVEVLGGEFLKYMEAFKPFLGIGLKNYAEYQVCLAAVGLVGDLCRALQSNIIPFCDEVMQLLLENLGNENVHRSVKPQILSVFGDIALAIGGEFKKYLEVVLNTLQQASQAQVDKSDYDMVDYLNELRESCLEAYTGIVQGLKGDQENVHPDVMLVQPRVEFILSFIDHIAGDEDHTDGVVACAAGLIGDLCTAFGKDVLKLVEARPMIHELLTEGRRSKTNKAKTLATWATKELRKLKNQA
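Inhibition scored from the CFP 486 nm/YFP 530 nm FRET ratio 45 min after adding 0.125 microM importin beta to 50 nM Rango biosensor preincubated 5 min with compound (room temperature, PBS with DTT, Tween-20, BSA). No-importin wells as positive control.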
miR-21 reporter = miR-21 reporter, rising signal. HeLa miR-21 FLuc reporter, luciferase, 48 h. Potency, µM (series often up to 38.3 µM), inactives show top-dose reporter change, positive = more light. 340,000 tested, under 10 active; active = well fitted rising curve with a large enough effect; inconclusive = small, poorly fitted or top-dose-only effect; inactive = no such curve, though single readings can be large or run the other way;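 further: % of control where 0% means no effect; miR-21 action dims this reporter so a rising signal means less miR-21 action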
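HeLa miR-21-FLuc reporter line, endogenous miR-21; 2000 cells/well in DMEM/10% FBS; compound titration up to ~40uM final, 48 h, 37 degree Celsius; luciferase detection reagent, 15 min lysis, CCD luminescence.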
Rango dissoc inh = inhibitors of RanGTP-induced Rango-importin beta complex dissociation; Biochemical FRET Rango-importin beta, RanGTP-induced dissociation; Potency, µM (top dose mostly 46.1 µM), for the others: top-dose activity change, negative = inhibition; actives 0.071% (n = 340,000); active means falling FRET ratio curve, often poorly fitted, with flat reads before Ran was added; inconclusive means other falling curves, or compound fluorescence or quenching; inactive means flat or rising ratio curve;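 further: potency means the concentration at half of the fitted maximal effect; % of control where 0% means no effect; nearly all actives have a fitted effect of over 45% in size; -100% = wells without RanGTP and RCC1; the record marks most hits as doubtful in a second field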
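Two FRET readings bracket the reaction: one 5 min after compound meets Rango–importin beta, another 45 min after RanGTP-RCC1 (0.6 uM Ran, 0.2 uM RCC1, 2 mM GTP) is added. Only the second defines inhibition.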
GLA inh pH 4.5 = blocks human alpha-galactosidase A at pH 4.5; purified enzyme, 4-MU-alpha-Gal fluorescence, pH 4.5; activity change, negative = inhibition, % at 105 µM; 230,000 tested, under 10 active; AID 1467; inconclusive = small, poorly fitted or top-dose-only inhibition, or a rising curve; inactive = flat fitted curve, though single readings scatter; no compound was filed as active;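 further: 0% = full activity with enzyme and -100% = basal without enzyme; dose as in the result columns while the protocol names 77 µM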
Active calls of the source: *; ? = inconclusive; . = no result given; & = joins results of further samples. The list is partial; rates above refer to the full screens.

Molecule | Rango-impB inh | miR-21 reporter | Rango dissoc inh | GLA inh pH 4.5
O=C(Nc1ccc(OC(F)(F)F)cc1)Oc1ccccc1N1CCCCC1 | -0.6% | -6% | 15% | -15
O=C(CCN1C(=O)c2ccccc2C1=O)NCCC1=CCCCC1 | 1.2% | -60% | 0% | .
CCOC(=O)c1cnc(SCc2nc(N)nc(Nc3ccc(F)cc3)n2)nc1N | -2.0% | -6% | 8% | ?
CN(CCc1ccccn1)C(=O)c1ccc(OC2CCN(Cc3ccccn3)CC2)cc1 | 4.7% | 0% | 0% | .
N#Cc1nc(Cc2ccccc2)oc1NCc1ccccc1 | -1.3% | -51% | 14% | -8
Nc1ccc(S(=O)(=O)N2CCOCCOCCOCCOCCOCC2)cc1 | 4.9% | -1% | -2% | .
COC(=O)Cc1cc(C)cc2c(=O)cc(-c3ccoc3)oc12 | ? | . | ? | .
CCOc1ccccc1N(C)C(=O)c1nn(-c2ccc(OC)cc2OC)c(=O)c2ccccc12 | 4.0% | -6% | -8% | -2

Ordered by the number under Rango dissoc inh (descending): some entries from above
Molecule | Rango-impB inh | miR-21 reporter | Rango dissoc inh | GLA inh pH 4.5
O=C(CCN1C(=O)c2ccccc2C1=O)NCCC1=CCCCC1 | 1.2% | -60% | 0% | .
Nc1ccc(S(=O)(=O)N2CCOCCOCCOCCOCCOCC2)cc1 | 4.9% | -1% | -2% | .
CCOc1ccccc1N(C)C(=O)c1nn(-c2ccc(OC)cc2OC)c(=O)c2ccccc12 | 4.0% | -6% | -8% | -2

Later entries.
Molecule | Rango-impB inh | miR-21 reporter | Rango dissoc inh | GLA inh pH 4.5
Cc1ccc(N=Nc2c(N)nn3c(C)cc(C)nc23)cc1 | -1.2% | -28% | 0% | -6
CCOc1cc(C2C(C(=O)c3ccco3)=C(O)C(=O)N2CCc2ccccc2)ccc1O (stereo not given) | -1.7% | -30% | 12% | -9
CCOc1ccc(S(=O)(=O)NCCC(=O)N2CCCN(C)CC2)cc1 | 4.6% | -3% | 10% | .
COc1ccc(N2C(=O)c3ccc(C(=O)Nc4ccccc4OC)cc3C2=O)cc1 | 0.8% | 2% | -9% | .
COc1cccc(-c2nnc(Nc3nc4c(F)cccc4s3)o2)c1 | -3.4% | -30% | 6% | 3
COC(=O)c1sc(S(=O)(=O)N2CCN(c3ccc(OC)cc3)CC2)c(C(=O)OC)c1C | 0.3% | -7%&1% | 0% | 2
COc1ccc(CNC(=O)C(c2ccco2)N(C(=O)Cc2cccs2)c2cccnc2)cc1 (stereo not given) | 1.7% | 8% | 3% | 4
CCS(=O)(=O)c1nc(S(=O)(=O)c2ccc(Cl)cc2)c(NCc2ccco2)s1 | 0.6% | -2% | -6% | -15
CCn1cc(S(=O)(=O)NCCc2ccc(F)cc2)cn1 | -1.3% | -11% | 3% | .
Cc1n[nH]c(=O)c2c(NC(=O)CSc3nnc(-c4ccncc4)n3C)oc(C)c12 | 0.8% | 0% | -4% | .
CC1(C)CC(=O)C2=C(C1)Nc1ncnn1C2c1ccccn1 (stereo not given) | 2.8% | 1% | 14% | -4
CC(=O)c1cc2c(cc1NS(=O)(=O)c1ccccc1Br)OCO2 | -1.4% | -1% | -12% | .
COc1ccc(Cl)cc1NC(=O)CN(C)C(=O)Cc1ccsc1 | -2.3% | . | 26% | .
CCSc1cc(N2CCCC2)nc(-c2ccc(F)cc2)n1 | 1.2% | -2% | -7% | 0
Clc1ccc(C2=Nn3c(Cn4nnc5ccccc54)nnc3SC2)cc1 | 0.0% | -1% | 0% | 3
COCCNc1c2c(c(C#N)c3nc4ccccc4n13)CCCC2 | ? | 0% | ? | 8

Some entries already given, limited to Rango dissoc inh and Rango-impB inh:
SMILES | Rango dissoc inh | Rango-impB inh
CCS(=O)(=O)c1nc(S(=O)(=O)c2ccc(Cl)cc2)c(NCc2ccco2)s1 | -6% | 0.6%
CCn1cc(S(=O)(=O)NCCc2ccc(F)cc2)cn1 | 3% | -1.3%

Next entries follow:
Molecule | Rango-impB inh | miR-21 reporter | Rango dissoc inh | GLA inh pH 4.5
C/C=C(\C)C(=O)OC(C)(C)[C@H]1Cc2cc3ccc(=O)oc3cc2O1 | -2.2% | 6% | -2% | .
COc1cc(C(=O)Nc2ccc(NC(=O)C3CC3)nc2)cc(OC)c1OC | -1.1% | -8% | -13% | 3
COC(=O)[C@@H]1C[C@]2(OC(=O)c3ccccc3)C=CC(=O)C[C@@H]2N1C(=O)OCc1ccccc1 | -2.3% | ? | -13% | -20
Cc1ccc(C)c(N(Cc2cc3ccc(C)cc3[nH]c2=O)C(=O)c2ccco2)c1 | -1.1% | 0% | -14% | -10
O=C(CN1CCOCC1)Nc1ccc(F)cc1 | -0.7% | -1% | -1% | .
Cc1cc(NC(=O)c2cc(-c3ccco3)on2)n(-c2ccccc2)n1 | -2.9% | -5% | -1% | 5
COc1ccc(/C=N/Nc2ncnc3scc(-c4ccccc4)c23)cc1OC | -2.8% | 13% | 7% | -1
CCCCn1c(N)c(-c2nc3ccccc3o2)c2c([N+](=O)[O-])nn(C)c(=O)c21 | 0.5% | -5% | 5% | -3
CCc1cccc(CC)c1NC(=O)CSc1nc2ccc(N3C(=O)C4C5C=CC(C5)C4C3=O)cc2s1 (stereo not given) | -1.0% | 17% | -1% | -4
CCNc1ccc(C(=O)OCC(=O)NCCN2C(=O)CSC2=O)cc1[N+](=O)[O-] | 1.6% | -9% | 0% | -4
O=C1CCN(Cc2ccccc2)CCN1[C@H](COc1ccccc1)Cc1ccccc1 | -4.2% | 8% | -6% | .
O=C(N/C(=C\c1cccc([N+](=O)[O-])c1)C(=O)N1CCOCC1)c1ccc([N+](=O)[O-])cc1 | 1.3% | -1% | 0% | 8
CC(C)C(=O)NC(c1cccc([N+](=O)[O-])c1)c1c(O)ccc2ccccc12 (stereo not given) | -0.1% | -2% | -7% | 9
CCOC(=O)N1CCN(Cc2nc3c(c(=O)n(C)c(=O)n3C)n2CCCc2ccccc2)CC1 | 3.6% | -8% | -7% | -4
COCCN(C(=O)Nc1ccc(OC)cc1OC)C1CCN(C(C)C)CC1 | -1.6% | -1% | -8% | -2
Cc1cc(C)c2c(N)c(C(=O)Nc3nccs3)sc2n1 | ? | 21% | ? | -17

Next part:
Each structure is followed by: Rango-impB inh | miR-21 reporter | Rango dissoc inh | GLA inh pH 4.5
- CCOC(=O)c1cnn(-c2ccccc2)c1NC(=O)c1ccccc1C
→ -0.3% | -6% | -8% | 3
- COc1ccccc1-c1nnc2sc(COc3ccc(Cl)cc3Cl)nn12
→ 3.9% | -3% | 14% | -2
- c1ccc2oc(SCc3cn4ccccc4n3)nc2c1
→ -3.9% | -38% | 16% | -4
- CC(C)c1nc(C#N)c(N2CCOCC2)o1
→ -1.6% | -7% | 1% | 2
- COc1ccc(S(=O)(=O)N2CCC(C(=O)NCCC(=O)Nc3cccc(Cl)c3)CC2)cc1
→ 4.5% | -1% | 9% | .
- CN1CCN(CCNC(=O)Nc2ccccc2[N+](=O)[O-])CC1
→ 8.3% | -10% | -3% | .
- O=C(Cn1ccc([N+](=O)[O-])n1)N1CCc2ccccc21
→ -5.4% | 4% | 0% | 3
- O=C(NCC1CCS(=O)(=O)C1)NCC1CCS(=O)(=O)C1 (stereo not given)
→ 2.9% | -2% | 15% | 11
- O=C(CSc1nnc(-c2ccncc2)o1)Nc1cc(F)ccc1F
→ 2.9% | . | -4% | .
- COc1ccc(-c2cc(C(=O)NCc3cccnc3)no2)cc1OC
→ 3.6% | -18% | -14% | -17
- CC(C)C(=O)Nc1ccc([N+](=O)[O-])c(C(F)(F)F)c1
→ -3.4% | 14% | 0% | -6&-1&1&1
- Cc1cccc(C(=O)N2CCN(S(=O)(=O)N3CCCCC3)CC2)c1
→ -3.0% | -1% | 10% | .
- COc1ccccc1-c1nnc(SCC(=O)c2c(N)n(C3CC3)c(=O)[nH]c2=O)o1
→ -1.1% | . | -5% | .
- CC(=O)Nc1ccc(Cc2nc3c([nH]2)c(=O)n(C)c(=O)n3C)cc1
→ . | 9% | . | 2
- CCC1CCC(C(=O)NC(C(=O)NCCCN2CCCCC2C)C(C)C)CC1 (stereo not given)
→ 0.5% | 2% | 1% | 1
- CC(=O)C1=C(c2ccccc2)OC(N)=C(C#N)C1c1ccc(O)cc1 (stereo not given)
→ ? | -2% | 0% | -4
- COc1ccc(C2c3ccc(O)cc3Oc3ncn4nc(-c5ccccn5)nc4c32)cc1 (stereo not given)
→ ? | -8% | ? | 0
- COc1ccc2c(c1)c(=O)oc1c(C)c(OCc3ccc(C(=O)O)cc3)ccc12
→ 2.4% | -2% | ? | .
- O=C(CCc1ccc(O)cc1)c1c(O)cc(O)cc1O
→ 0.9% | -1% | -11% | -14&-14&-13&-14
- Cc1cccc(N2CCN(C(c3cccs3)c3nnnn3C(C)(C)C)CC2)c1C (stereo not given)
→ -0.4% | 1% | -4% | 3
- CCC(C)NC(=O)COc1ccc(S(=O)(=O)N2CCOCC2)cc1 (stereo not given)
→ 3.9% | -3% | -12% | -3
- O=C(/C=C/c1ccccc1)N/C(=C/c1ccccc1)C(=O)Nc1cccc(C(=O)O)c1
→ 3.8% | -2% | -13% | -11
- O=C1CCN(c2ccc([N+](=O)[O-])cc2F)CC1
→ 2.6% | -2% | -1% | 1
- c1ccc(CNc2c3ccccc3nc3ccccc23)cc1
→ ? | ? | ? | .
- O=C(Nc1nnc(S(=O)(=O)N2CCCCC2)s1)c1ccc(Cl)cc1
→ 0.1% | -6%&-2% | 10% | .
- Cc1nn(-c2ccccc2)c(C)c1/C=N/NC(=O)CSc1nnc(-c2ccccc2)n1-c1ccc(Cl)cc1
→ 2.6% | 5% | 8% | 0
- Cc1ccc(C(C(=O)NCc2ccco2)N(CCc2ccccc2)C(=O)Cn2nnc3ccccc32)o1 (stereo not given)
→ -2.3% | -6% | ? | -13
- Cc1cc(C)c(OCC(=O)NCC2CCCO2)c(C)c1 (stereo not given)
→ -1.9% | 3% | -10% | 6
- CCn1c(SCCOc2ccc(Cl)cc2)nnc1-c1cccs1
→ 0.3% | -5% | 5% | 2
- O=C(c1ccc(Br)cc1)N(C1=NCCCCS1)c1ccccc1
→ -0.2% | -5% | 22% | -8
- COc1ccc(C2C(C(=O)N3CCN(c4ccccn4)CC3)CCC(=O)N2c2ccc(OC)cc2)cc1 (stereo not given)
→ -2.8% | 1% | 12% | -27
- CCN(CC(=O)NCc1ccc(Cl)cc1)C(=O)CSc1ccc(F)cc1
→ -1.5% | . | 14% | .
- CCCCNC(=O)c1ccccc1NC(=O)c1ccccc1N(C)S(C)(=O)=O
→ -0.6% | -2% | 1% | -4
- Nc1nonc1-n1nnc(C(=O)N/N=C/c2ccco2)c1CSc1ccccc1
→ -0.3% | 2% | 2% | .
- O=C(NCc1ccc2c(c1)OCO2)c1ccc(Br)s1
→ ? | -33% | -6% | -3
- N#CCCN1CCN(S(=O)(=O)c2ccc3c(c2)CCC3)CC1
→ 0.6% | . | 7% | .
- Cn1nnc(NC(=O)c2ccc(C(C)(C)C)cc2)n1
→ -1.5% | -26% | -15% | 4
- CCCCOc1ccc(CSc2n[nH]c(C)n2)cc1
→ 2.2% | -17% | -2% | 1
- CN(C)C(=O)c1cc(C(=O)c2ccccc2C(F)(F)F)c[nH]1
→ -0.2% | 6% | 6% | 1
- CC(C)C(=O)OCc1cn(-c2ccc(Cl)c(Cl)c2)nn1
→ 0.5% | -9% | 0% | -3
- C[C@H]1CN[C@H](CCO)/C1=C\c1ccccc1
→ -0.3% | . | 10% | .
- COc1cc(C(CC(=O)N2CCCC2)c2c(OC)cc(OC)c3ccc(=O)oc23)cc(OC)c1OC (stereo not given)
→ ? | 3% | ? | -2
- CCOc1ccc2cc(C3CC(c4ccco4)=NN3S(=O)(=O)c3ccccc3)c(Cl)nc2c1 (stereo not given)
→ ? | -10% | -12% | -10
- CC(C)(C)NC(=O)C1Cc2ccccc2CN1C(=O)Nc1ccccc1Cl (stereo not given)
→ 0.4% | -3% | 18% | 1
- N#CCCC(CCC#N)(CCC#N)c1cc[n+](CCc2ccccn2)cc1
→ 2.2% | . | -12% | .
- O=C(Nc1ccc(Oc2ccccc2)cc1)C1CCN(c2c3c(nc4ncnn24)CCC3)CC1
→ 8.5% | ? | -16% | -2
- CC(C)c1ccc(S(=O)(=O)NCc2ccc3c(c2)OCO3)cc1
→ -2.4% | -2% | -2% | .
- Cc1ccc2cc(C=O)c(N(C)C)nc2c1
→ ? | -5% | -10% | -15

Source: PubChem (National Center for Advancing Translational Sciences (NCATS))
